# Source: PubChem (National Center for Advancing Translational Sciences (NCATS))
# Vaccinia mCherry: qHTS for Stage-Specific Inhibitors of Vaccinia Orthopoxvirus: mCherry Reporter Primary qHTS | Vaccinia virus mCherry reporter infection, fluorescence; about a quarter of the inactives have no number | Potency, µM (series often up to 36.5 µM), inactives show top-dose activity change, negative = inhibition, hits mostly inhibitors | 310,000 compounds, 0.63% hits | AID 720579, 2013; active = well fitted inhibition curve with a large enough effect; inconclusive = small, poorly fitted or top-dose-only effect; inactive = no such curve, though single readings can be large or run the other way; tested in A549 cells; note: nearly all actives have a fitted effect of over 35% in size; inactives centre near -10
# VACV Venus inh: qHTS for Stage-Specific Inhibitors of Vaccinia Orthopoxvirus: Venus Reporter Primary qHTS | Vaccinia virus Venus reporter expression, fluorescence | Potency, µM (highest dose often 36.5 µM), inactives show top-dose activity change, negative = inhibition, usual class: inhibitors | 330,000 compounds, 0.46% hits | AID 720580, 2013; active means well fitted inhibition curve with a large enough effect; inconclusive means small, poorly fitted or top-dose-only effect; inactive means no such curve, though single readings can be large or run the other way; tested in A549 cells; note: nearly all actives have a fitted effect of over 30% in size; inactives centre near -10
# * hit, by the source's call; i = inactive; u = inconclusive; x = no result given; [ ] = remark or other dose. % is set by controls: 0 for no effect and ±100 for the full control effect; potency is the fitted concentration of half-maximal effect. Compounds were not picked by outcome. Share with any hit: about 0.87%.
SMILES,Vaccinia mCherry,VACV Venus inh
CCCCc1c(-c2ccccc2OC)ncn1CCc1ccc(Cl)cc1,-26%,u
O=C(O)c1cc(-c2ccc(Cl)cc2)n(-c2ccc(F)cc2)n1,-1%,9%
CCC(Sc1ncccc1C(=O)Oc1ccccc1Cl)C(=O)Nc1ccccc1OC (stereo unspecified),-2%,-4%
CCOC(=O)c1ccccc1NC(=S)N1CC(C)CC(C)C1 (stereo unspecified),-2%,-10%
COc1ccc(Nc2nc(-c3ccc4c(c3)NC(=O)CO4)cs2)cc1,u,-13%
C/C(=N\NC(N)=S)c1cc(-c2ccccc2)c(-c2ccccc2)s1,-14%,-6%
Cc1ccc(/C=N/NC(=S)N2CCOCC2)cc1,-7%,-10%
CCCS(=O)(=O)N1CCN(C2CCC(C)CC2)CC1 (stereo unspecified),-14%,-7%
COc1cccc(C(=O)NCC[N+](C)(C)C)c1,24%,17%
COc1ccc(NC(=O)C2C(c3ccc4c(c3)OCO4)=Nc3ccccc3N2C(=O)c2cccc(C(F)(F)F)c2)cc1 (stereo unspecified),u,-16%
CCc1cc2c(cc3c(=O)n(CC(=O)NC4CCCCC4)ncn32)s1,-16%,-12%
Oc1ccc(C[C@H]2CNCCN2CCc2cccc(F)c2)cc1,i,3%
CCOC(=O)C1=C(C(=O)OCC)N(CC)CCC1=O,i,-7%
CCCCN1CC(O)=C(c2nc3ccccc3s2)C1=N,u,-16%
CC(=O)c1ccc(N2C(=O)C3C(C2=O)C(C(=O)c2ccc(Cl)cc2)N2CCCC32)cc1 (stereo unspecified),-2%,25%
CC(C)(C)c1ccc(S(=O)(=O)n2c(CN3CCOCC3)nc3ccccc32)cc1,-5%,-7%
Cc1ccc(NC(=O)c2c(C)nc3sc(C(=O)Nc4ccc(F)cc4)c(N)c3c2-c2ccccc2Cl)c(C)c1,2%,-2%
CC(C)[C@H](NC(=O)c1ccccc1F)C(=O)NCCc1ccccc1,-8%,2%
COC(=O)c1c(NC(=O)CCCC(=O)O)sc(C)c1C,x,-19%
O=C(O)CC1C(=O)NCCN1C/C=C/c1ccccc1 (stereo unspecified),-14%,-7%
CCC(C(=O)NC1CCCCC1)n1nc(C)c2c(C)n(-c3ccccc3)nc2c1=O (stereo unspecified),-7%,-1%
Cc1ccc(C2NC(=O)NC(O)(C(F)(F)F)C2C(=O)c2ccccc2)o1 (stereo unspecified),i,-7%
Cn1c(=O)c2c(O)c(C=Nc3ccc(F)cc3)c(=O)n(C)c2n(C)c1=O,-3%,-13%
CC(C)(C)N=C1NN=C(c2ccc(S(=O)(=O)N3CCCCC3)cc2)CS1,-29%,-6%
Cc1cccc(-c2ccc(C=Nc3c(C)n(C)n(-c4ccccc4)c3=O)o2)c1,i,-3%

# Record cards, from the list above. Order of screens: Vaccinia mCherry	VACV Venus inh
# `Oc1ccc(C[C@H]2CNCCN2CCc2cccc(F)c2)cc1` is listed as i	3%
# `CC(C)(C)c1ccc(S(=O)(=O)n2c(CN3CCOCC3)nc3ccccc32)cc1` is listed as -5%	-7%

# Later entries:
SMILES,Vaccinia mCherry,VACV Venus inh
COC(=O)CCC(=O)OC1(C)C(=O)C2=CN(Cc3ccc(OC)cc3)C(c3ccc(OC)cc3)=CC2=C(Br)C1=O (stereo unspecified),-13%,-5%
CC1CCN(CC(=O)Nc2cccc(Cl)c2)CC1,-8%,-6%
CCOC(=O)C1CCN(C(=O)c2ccccc2NS(=O)(=O)c2cc(C)ccc2C)CC1,-16%,-7%
O=S1(=O)CC(N2CCCC2)CN1Cc1cn(Cc2ccccc2)nn1 (stereo unspecified),12%,2%
CCOC(=O)/C(=N\Nc1ccccc1Cl)N1CC(C)OC(C)C1 (stereo unspecified),-26%,3%
CC(=O)Nc1ccc(NC(=O)C(C)OC(=O)[C@@H]2CCCN2C(=O)c2cccs2)cc1 (stereo partly specified),-2%,-13%
O=C(NC1CC1)C1=C[C@@H](c2ccc3c(c2)OCO3)C[C@@H](OCCCCO)O1,-19%,-7%
CCN(Cc1ccc(OC)c(F)c1)C(=O)C1CCCO1 (stereo unspecified),-20%,-7%
CCC1CCCCN1C(=O)c1nn(-c2ccc(OC)cc2)c(=O)c2c1c1ccccc1n2C (stereo unspecified),-4%,-6%
COc1ccc(-c2nc(CCNC(=O)c3c(F)cccc3Cl)cs2)cc1,-9%[7.34 µM],-4%[7.34 µM]
CCc1noc(C)c1C(=O)N1CCN(S(=O)(=O)c2cc(C)ccc2C)CC1,i,-15%
COc1cccc(C(c2sc3nc(C)nn3c2O)N2CCN(c3ccccc3F)CC2)c1 (stereo unspecified),-8%,-20%
COc1cc(NC(=O)CCc2nnc3ccc(N4CCOCC4)nn23)cc(OC)c1OC,i,-5%
CCCCNc1c(-c2ccc(-c3ccc(C(C)=O)cc3)c(OC)c2)nc2cnccn12,u,-19%
Cc1cccc(C)c1OCc1cc(=O)n2c(-c3ccccc3)csc2n1,-9%,-5%
CCOC(=O)C1(CCCc2ccccc2)CCN(C(=O)CCc2cnccn2)CC1,-8%,-13%
COc1ccc(NS(=O)(=O)c2cccc3nsnc23)cc1OC,-24%,-10%
CCOc1cc(/C=C2\C(=O)N(c3ccc(C(N)=O)cc3)N=C2C)ccc1OC(=O)c1cccs1,-7%,-2%
COC(=O)c1ccccc1NC(=O)C1CC(c2ccccc2O)=NO1 (stereo unspecified),-15%,-2%
COC(=O)[C@]1(Cc2ccccc2)N[C@H](CN(C)C(=O)c2ccccc2)[C@@H]2C(=O)N(Cc3ccccc3)C(=O)[C@@H]21,i,-1%
CC(Sc1ccccc1)C(=O)N(CCC#N)Cc1cccnc1 (stereo unspecified),0%,7%
C[C@]12c3[nH]c4ccccc4c3CCN1C(=O)C(CC(=O)NCCc1ccccn1)C[C@@H]2C(=O)N1CCOCC1 (stereo partly specified),i,-9%
c1ccc(-c2csc(NC3=NCCCCC3)n2)cc1,i,0%
O=C(CCSc1ccccc1)Nc1ncccn1,14%,22%
CN(CC(=O)Nc1cccc(F)c1)C(=O)c1cccc(S(=O)(=O)N2CC3(C)CC2CC(C)(C)C3)c1 (stereo unspecified),-17%,-29%

# Three structures out of the list, sorted by heavy-atom count, falling:
SMILES,Vaccinia mCherry,VACV Venus inh
CCC1CCCCN1C(=O)c1nn(-c2ccc(OC)cc2)c(=O)c2c1c1ccccc1n2C (stereo unspecified),-4%,-6%
COc1cccc(C(c2sc3nc(C)nn3c2O)N2CCN(c3ccccc3F)CC2)c1 (stereo unspecified),-8%,-20%
c1ccc(-c2csc(NC3=NCCCCC3)n2)cc1,i,0%

# Retrieved by compound from above (6):
SMILES,Vaccinia mCherry,VACV Venus inh
COc1cc(NC(=O)CCc2nnc3ccc(N4CCOCC4)nn23)cc(OC)c1OC,i,-5%
CCOc1cc(/C=C2\C(=O)N(c3ccc(C(N)=O)cc3)N=C2C)ccc1OC(=O)c1cccs1,-7%,-2%
COc1cccc(C(c2sc3nc(C)nn3c2O)N2CCN(c3ccccc3F)CC2)c1 (stereo unspecified),-8%,-20%
COC(=O)[C@]1(Cc2ccccc2)N[C@H](CN(C)C(=O)c2ccccc2)[C@@H]2C(=O)N(Cc3ccccc3)C(=O)[C@@H]21,i,-1%
CCOC(=O)C1(CCCc2ccccc2)CCN(C(=O)CCc2cnccn2)CC1,-8%,-13%
CCOC(=O)C1CCN(C(=O)c2ccccc2NS(=O)(=O)c2cc(C)ccc2C)CC1,-16%,-7%

# New compounds follow:
SMILES,Vaccinia mCherry,VACV Venus inh
COC(=O)c1sc(N2C(=O)C(=O)/C(=C(/O)c3ccccc3)C2c2ccco2)nc1C (stereo unspecified),i,5%
O=C(NCCC1CCCCN1S(=O)(=O)c1ccccc1)C(=O)NCc1ccco1 (stereo unspecified),i,-9%
CCCc1cnc(Nc2nc(C(N)Cc3ccc(C(F)(F)F)cc3)cs2)nc1 (stereo unspecified),-25%,-14%
CCCC(=O)C1=C(c2ccc(C)c(C)c2)N(C(=O)CCC)n2c(CC)nnc2S1,u,u
Cc1ccc(CCNC(=O)CNC(=O)c2cccs2)cc1,4%,-4%
C#CCOCCOCCOCCNc1nc(N2CCOCC2)nc(N2CCN(C(=O)Cn3cc(CC(C)O)nn3)CC2)n1 (stereo unspecified),i,-20%
Cc1c(C(=O)N2CCCCCC2)c(S(=O)(=O)NCc2ccccc2Cl)c(C)n1C,-22%,-17%
COc1cccc(OC)c1C(=O)NC(=O)Oc1c(F)cccc1F,-13%,9%
Cc1ccc(CCNC(=O)c2ccc(CSCc3ccccc3Cl)o2)cc1,-18%,-14%
Cc1cc(C)nc(N2CCCC(C(=O)Nc3ccc(F)cc3)C2)n1 (stereo unspecified),-10%,-3%
COc1ccccc1N1CCN(C(=O)c2cc3c(=O)n(Cc4cccs4)ccc3nc2C)CC1,-28%,-16%
Cc1ccc(NC(=O)CN(C)CC(=O)Nc2cccc(F)c2)cc1S(=O)(=O)N1CCCCCC1,-4%,-27%
O=C(c1ccc(F)cc1)N1CCC(C(=O)N2CCN(S(=O)(=O)c3ccccc3Br)CC2)CC1,i,-8%
Cc1nc(C)n(C(C)CNC(=O)c2ccco2)n1 (stereo unspecified),i,-7%
COc1ccc(CCNC(=S)Nc2cc(C)ccc2C)cc1,x,u
Cc1ccc(O)c(N)c1,-11%,-24%
Oc1ccc(N2CCN(C(c3cccs3)c3nnnn3CCc3ccccc3)CC2)cc1 (stereo unspecified),-13%,-23%
CCC(C(=O)OCC(=O)c1ccc2c(c1)NC(=O)CO2)c1ccccc1 (stereo unspecified),-2%,-13%
O=C(NCCn1c(C(F)(F)F)nc2ccccc21)[C@H]1CCCN1c1nc(CN2CCCCC2)cs1,u,-6%
NC(=O)c1ccc(NC(=O)COC(=O)c2cc([N+](=O)[O-])ccc2N2CCOCC2)cc1,-9%,-4%
Cc1ccc(NC(=O)CSc2nnc(-c3ccc(Br)cc3)o2)c(C)c1,-11%,-8%
CCOc1ccc(N2C(=O)CC(NC3CCCCNC3=O)C2=O)cc1 (stereo unspecified),x,10%
COc1ccccc1C(=O)COC(=O)c1cccs1,i,-9%
COc1cccc(S(=O)(=O)N(C)C[C@@H]2OCc3cn(nn3)CCCC(=O)N([C@@H](C)CO)C[C@H]2C)c1,-6%,-8%
COc1ncccc1C(=O)N1CCCC(N2CCN(c3ccc(F)cc3)CC2)C1 (stereo unspecified),-13%,-16%
SMILES,Vaccinia mCherry,VACV Venus inh
Cn1nnnc1SCC(=O)Nc1nc2ccccc2s1,-7%,-7%
COc1ccc(OCC(O)Cn2c(NCCO)nc3c2c(=O)n(C)c(=O)n3C)cc1 (stereo unspecified),-5%[7.34 µM],-9%[7.34 µM]
COCOC1CCC2C3CCC4=CC(=O)CCC4=C3C=CC12C (stereo unspecified),-11%,-14%
O=C1C=C(c2ccccc2)CC(c2cccs2)C1n1cnc([N+](=O)[O-])c1 (stereo unspecified),x,-9%
Cc1ccc(C2=Nc3ccccc3N(CC(=O)NCc3ccc(Cl)cc3)C(=O)C2)cc1C,u,-24%
CCn1cc(C(=O)Nc2ccc(C(C)C)cc2)c2cc(OC)c(OC)cc2c1=O,-31%,-25%
COc1ccc(-c2csc(N=C(N)N)n2)cc1,u,-21%
Cc1ccc(Cl)cc1NC(=O)NCCN1CCCCC1,-10%,2%
Cc1ccc(C(=O)c2cn(Cc3ccccc3)c3c(F)cc(F)cc3c2=O)cc1,i,-15%
COC(=O)c1ccc(CNC(=O)COC(=O)C2CC3C=CC2C3)cc1 (stereo unspecified),-6%,-5%
CNc1ccccc1C(=O)OCC(=O)c1ccc(F)cc1,i,-13%
CCOC(=O)C1=C(CS(=O)(=O)c2c(C)cc(C)cc2C)NC(=O)NC1c1cccc(OC)c1 (stereo unspecified),-6%,3%
COCCn1c(SCC(=O)Nc2ccc(C(F)(F)F)cc2)nc2c([nH]c3ccccc32)c1=O,5%,7%
Cc1ccc(S(=O)(=O)c2nc(S(C)(=O)=O)sc2N2CCC(C(N)=O)CC2)cc1,-8%,-15%
COc1cc(/C=N/NC(=O)c2ccccc2NS(=O)(=O)c2cccs2)ccc1O,i,-14%
COc1ccc(NC(=O)CSc2ccc(NC(C)=O)cc2)cc1S(=O)(=O)N1CCCCC1,-18%,-11%
COc1ccccc1CNC(=O)c1ccc(N2CCCC2)c(NC(=O)NCc2ccc(C)cc2)c1,-23%,-21%
Cc1ccc(/C=C/C(=O)c2ccccc(=O)c2O)c(C)c1,u,u
COCCCNC(=O)c1cnn(-c2ccccc2Cl)c1C1CCN(C(=O)OC(C)(C)C)CC1,-11%,-2%
Cc1ccc(S(=O)(=O)CCC(=O)N2CCc3ccccc32)cc1,i,-9%
CC(C)c1ccc(/C=C/C(=O)NNC(=O)c2cccnc2)cc1,-8%,1%
COc1ccccc1CCNC(=O)CCn1c(=O)oc2ccccc21,-10%,0%
